CtBP-E1A blk – blocks the CtBP interaction with E1A; AlphaScreen GST-E1A/His-CtBP binding, 1536-well; active compounds read low; control for the full effect not named in the record; activity change, % (concentration not given with the values); actives 0.49% (n = 340,000); in the data active means activity change below about -65%; inconclusive means about -30% to -65%; inactive means above about -30%; further: on the % scale 0 is the no-effect control and ±100 the full control effect
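GST-E1A and His-tagged CtBP (125 nM each as 5X stock) were preincubated with pin-transferred compound for 2 h at 37 °C in the dark, then glutathione donor and nickel acceptor beads were added for 1 h before AlphaScreen reading.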
D2 potentiator – human D2 receptor positive allosteric modulation | actives 0.23% (n = 360,000) | DiscoveRx D2 beta-arrestin cells, luminescence, 90 min; 100% = 57 uM dopamine signal | P14416 | potentiation, % (no concentration beside the values); active = potentiation of 50% or more; inconclusive = 30% to 50%; inactive = 30% or less;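 further: compound concentration not given in the record; tested on top of an EC20 dose of dopamine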
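PathHunter beta-arrestin assay in DiscoveRx D2 cells. Compounds were added with an EC20 of dopamine (50 nM final) for 90 min at 37 deg C. Luminescence was read 1 h after detection reagent, with 57 uM dopamine as the EC100 control.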
gsp antag – antagonizes gsp, the McCune-Albright syndrome mutation | gsp-mutant cells, cAMP HTRF, 30 min; control for the full effect not named in the record | Potency, µM (series often up to 76.9 µM), inactives show at the top dose activity change, negative = inhibition, most hits filed as inhibitors | actives 0.4% (n = 340,000); active = falling curve of any shape with a large fitted effect; inconclusive = falling curve, mostly with a smaller effect; inactive = flat or rising curve; cell line not stated here;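 further: intracellular cAMP measured with PDE inhibitor Ro 20-1724 present during compound exposure; potency means the concentration at half of the fitted maximal effect; on the % scale 0 is the no-effect control and ±100 the full control effect; nearly all actives have a fitted effect of over 65% in size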
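HTRF cAMP measurement after 30 min RT detection following 30 min, 37C compound treatment alongside […] (added as 300 uM solution) in G418-selected cells seeded at 2000/well and grown 16–24 h.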
gsp agonist – agonists of gsp mutant (McCune-Albright syndrome) | gsp mutant cells, cAMP HTRF, 30 min; control for the full effect not named in the record | Potency, µM (highest dose often 76.9 µM), without a hit: top-dose activation (cAMP increase), most hits filed as activators | actives 0.13% (n = 340,000); active = well fitted activation curve with a large enough effect; inconclusive = small, poorly fitted or top-dose-only effect, or another doubt; inactive = no such curve, though single readings can be large or run the other way; cell line not stated here;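 further: phosphodiesterase inhibitor Ro 20-1724 added with compounds to block cAMP breakdown; potency means the concentration at half of the fitted maximal effect; nearly all actives have a fitted effect of over 60% in size; about a fifth of the inactives were tested at one dose only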
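Cells in DMEM/10% FBS with G418 were pretreated with compounds in DMSO plus […] (300 uM stock) for 30 min at 37C. cAMP was measured by HTRF (cAMP-d2 plus anti-cAMP antibody-K) after 30 min at room temperature.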
Six1-Eya2 inh – blocks human Six1 binding to Eya2; actives 0.56% (n = 360,000); AlphaScreen GST-Six1/His-Eya2 binding, biochemical; active compounds read low; control for the full effect not named in the record; AID 651725; activity change, % (concentration not given with the values); in the data active = activity change below about -65%; inconclusive = about -30% to -65%; inactive = above about -30%; further: on the % scale 0 is the no-effect control and ±100 the full control effect
Target sequence (O00167 whole entry, looked up): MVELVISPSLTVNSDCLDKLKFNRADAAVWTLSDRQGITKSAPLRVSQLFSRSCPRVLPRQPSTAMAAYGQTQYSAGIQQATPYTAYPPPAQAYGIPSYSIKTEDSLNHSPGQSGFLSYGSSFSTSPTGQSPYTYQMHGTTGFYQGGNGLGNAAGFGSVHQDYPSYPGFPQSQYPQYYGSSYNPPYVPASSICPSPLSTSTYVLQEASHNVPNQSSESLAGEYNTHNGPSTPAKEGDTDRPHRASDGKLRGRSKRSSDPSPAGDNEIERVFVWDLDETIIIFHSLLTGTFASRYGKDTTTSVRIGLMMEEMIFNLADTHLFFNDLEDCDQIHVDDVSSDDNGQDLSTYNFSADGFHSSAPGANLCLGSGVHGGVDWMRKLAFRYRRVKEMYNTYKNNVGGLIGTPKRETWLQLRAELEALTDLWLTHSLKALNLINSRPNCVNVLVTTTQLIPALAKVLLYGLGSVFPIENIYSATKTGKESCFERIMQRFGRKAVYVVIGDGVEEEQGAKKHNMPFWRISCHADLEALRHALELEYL
Target sequence (Q15475 whole entry, looked up): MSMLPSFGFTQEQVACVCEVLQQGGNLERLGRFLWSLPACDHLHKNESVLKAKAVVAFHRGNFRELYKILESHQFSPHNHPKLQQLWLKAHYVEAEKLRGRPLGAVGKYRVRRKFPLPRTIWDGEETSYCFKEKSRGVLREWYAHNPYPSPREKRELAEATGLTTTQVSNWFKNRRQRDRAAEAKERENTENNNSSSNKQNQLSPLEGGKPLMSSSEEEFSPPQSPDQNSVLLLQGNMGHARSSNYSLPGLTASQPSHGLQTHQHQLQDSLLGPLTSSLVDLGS
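AlphaScreen with GST-Six1 and His-Eya2 (5X mix: 250 nM and 500 nM), glutathione donor and nickel acceptor beads; buffer 50 mM Tris pH 8.0, 300 mM NaCl, 1 mM TCEP; 1 h at 37 C in the dark.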
D2 agonist – human D2 receptor agonism in beta-arrestin assay | P14416 | DiscoveRx PathHunter D2 beta-arrestin, luminescence, 90 min; 100% = 57 uM dopamine signal | activation, % (no concentration beside the values) | actives 0.084% (n = 360,000) | AID 624465; in the data active = activation above about 40%; inconclusive = about 15% to 40%; inactive = below about 15%; further: compound concentration not given in the record; the text of the record calls up to 30% inactive
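Agonist mode: compounds alone added to overnight-plated D2 PathHunter cells for 90 min at 37 C, with 57 uM final dopamine (EC100) defining full response. Beta-arrestin recruitment detected by chemiluminescent reagent, read after 1 h at ambient temperature.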
* marks the source's active call; other numbers are inactive results; ? = inconclusive; / = no result given; [ ] = remark or other dose.

SMILES	CtBP-E1A blk	D2 potentiator	gsp antag	gsp agonist	Six1-Eya2 inh	D2 agonist
CC(Sc1nncs1)C(=O)Nc1ccc(S(=O)(=O)Nc2ncccn2)cc1 (configuration not stated)	/	-12	-2%	-6%	11	-1.9
COCCNC(=O)CN1C(=O)/C(=C/c2ccccc2)Oc2ccc(C(C)(C)C)cc21	/	-5	28µM*	13%	16	2.3
CCOc1cc(/C=C2\C(=O)ON=C2c2ccccc2)ccc1OC	3	12	?	-3%	1	-7.1
COc1cc2c(cc1OC)CN(CC(=O)Nc1ccc(Cl)cc1Cl)CC2	-2	-1	-20%	1%[15.4 µM]	-11	3.0
CCCNc1c(NS(=O)(=O)c2ccc(C(C)(C)C)cc2)c(=O)oc2ccccc12	/	-7	1%	12%	10	0.5
CC(C)(C)NC(=O)C1CCN(c2ccc(S(=O)(=O)N3CCOCC3)cc2Cl)CC1	-21	-6	2%	-23%[15.4 µM]	4	-2.4
CCC(C(=O)NC(C)(C)C)N(Cc1ccc(OC)cc1)C(=O)c1snc(C(N)=O)c1N (configuration not stated)	-6	-8	/	0%	-6	-7.8
CCOc1c(Br)cc(CNC2CCCCCCC2)cc1OC	-2	-24	-8%	-14%	0	-5.1
CC(C)N=c1c([N+](=O)[O-])nn(C)n1O	-13	-3	9%	?	7	-4.3
O=c1[nH]c2sc3c(c2c2nncn12)CCCC3	-83*	-1	35µM*	0%	-79*	-2.6
Cc1ccc(-c2ccc(CN3C(C)C(=O)N(Cc4cn(Cc5ccco5)nn4)CCS3(=O)=O)cc2)cc1 (configuration not stated)	1	-7	/	-51%[inhibitor]	-11	-1.5
CCCc1cc(C(=O)OCC(=O)NCCc2ccccc2)sc1C	5	-5	/	-16%	9	-1.2
N#CC1=C(N)SC(N)=C(C#N)C1C1CC=CCC1 (configuration not stated)	4	-6	9%	-65%[inhibitor]	1	-1.7
Cn1c2ccccc2c(=O)c2ccc(NCCc3cccs3)cc21	-12	10	?	/	-12	12
COc1cccc(CN2CCC2(C)C(=O)Nc2ccc3c(c2)CCN3C(C)=O)c1F (configuration not stated)	1	5	/	/	-1	3.4
CC1CCCCN1CCNc1nc(=S)[nH]c2ccccc12 (configuration not stated)	-3	-22	9%	-23%	-1	-1.6
COc1ccc(CNC(=O)C2COc3ccccc3O2)c(OC)c1 (configuration not stated)	5	-5	0%	6%	2	-1.1
OCC[C@@H]1C[C@H](O)[C@@H](O)[C@]2(OCCc3cc(Cl)ccc32)O1	6	-5	/	/	8	-4.8
CCN1CCN(c2ccc(S(=O)(=O)N3CCOCC3)cc2NC(=O)CC(NC(C)=O)c2ccccc2)CC1 (configuration not stated)	-18	0	7%	13%	-1	-3.2
COc1ccc(C2=NN(C(=O)CN3CCCC3)C(c3ccc(OC)cc3)C2)cc1 (configuration not stated)	-26	-9	7%	21%[15.4 µM]	-1	-1.8
O=C1CCN(Cc2ccccc2)C=C1c1ccc2ccccc2c1	-7	-11	-17%	-5%	-12	-7.7
Cc1ccc(-n2cc3c(=O)n(C)c(=O)n(C)c3c2)cc1C	-3	4	-4%[15.4 µM]	-2%	-11	-1.5
O=C(CSc1nc2ccccc2c(=O)n1Cc1ccc(Cl)cc1)NCc1cccs1	/	-5	-4%	24%	-2	3.3
Cc1ccc(NC(=O)c2ccccn2)c(Br)c1	/	-11	-12%	-8%	9	3.5
CCCCOc1ccc(/C(O)=C2/C(=O)C(=O)N(CCCOC)C2c2ccncc2)cc1 (configuration not stated)	0	6	0%	?	7	0.0

Ordered by SMILES length (highest first): part of the list above
SMILES	CtBP-E1A blk	D2 potentiator	gsp antag	gsp agonist	Six1-Eya2 inh	D2 agonist
O=C(CSc1nc2ccccc2c(=O)n1Cc1ccc(Cl)cc1)NCc1cccs1	/	-5	-4%	24%	-2	3.3
N#CC1=C(N)SC(N)=C(C#N)C1C1CC=CCC1 (configuration not stated)	4	-6	9%	-65%[inhibitor]	1	-1.7
O=c1[nH]c2sc3c(c2c2nncn12)CCCC3	-83*	-1	35µM*	0%	-79*	-2.6

(more compounds)
SMILES	CtBP-E1A blk	D2 potentiator	gsp antag	gsp agonist	Six1-Eya2 inh	D2 agonist
COc1ccc2[nH]c(=O)c(CN(C(=O)c3cccnc3)c3ccccc3)cc2c1	4	-3	3%	?	-1	-5.6
CCN(Cc1cc2cc(C)ccc2[nH]c1=O)S(=O)(=O)c1ccccc1	-10	12	-8%	27%	-3	2.1
O=S(=O)(Cc1ccccc1)NCc1ccccn1	7	-4	4%	-3%	3	-1.2
Nc1[nH]ncc1S(=O)(=O)c1ccccc1	1	1	9%	3%	-6	1.6
COc1ccc(CN2CCNC(=O)C2CC(=O)N(C)CC2CCOCC2)cc1OC (configuration not stated)	/	3	10%	?	0	6.4
Cc1ccc(/C=C2/SC(=Nc3ccc(F)cc3)NC2=O)s1	4	-2	-6%	0%	15	0.4
CC(C)[C@H](NC(=O)[C@@H]1Cc2ccccc2CN1)C(=O)Nc1ccc2c(c1)OCO2	-5	-14	-6%	9%	1	0.5
CCOc1ccc(NC(=O)C/C(C)=N/NC(=O)c2cnccn2)cc1	-10	-8	7%	10%	-16	1.9
NC(N)=NC(N)=Nc1ccc2ccccc2c1	/	-9	11%	-1%	1	-6.9
O=C(CCCn1c(=O)[nH]c2ccccc2c1=O)Nc1ccc(F)cc1	4	-5	13%	-2%[15.4 µM]	-5	-3.4
CCOc1ccc(C(=O)N2CCC3(CC2)NCCc2[nH]cnc23)cc1	0	-6	9%	?	-1	1.4
O=C(c1ccc(Cn2c(=O)[nH]c3ccccc3c2=O)cc1)N1CCN(c2ccccn2)CC1	-1	-2	-20%	13%	-10	-2.0
C/C=C/C(=O)N1c2ccccc2C(C)=CC1(C)C	0	-10	-16%	-1%[15.4 µM]	0	-4.9
Cn1c(S(=O)(=O)c2ccc([N+](=O)[O-])cc2)nc(Br)c1Br	-5	?	-4%	9%[15.4 µM]	-7	3.9
COc1cccc(CC(=O)Nc2nc3c(s2)C(=O)CC(C)(C)C3)c1	10	-6	-2%	?	-6	-0.1
COc1cccc(-c2nnc(Nc3nc4c(F)cccc4s3)o2)c1	4	10	?	3%	4	-0.5
COc1ccc(OC)c(CCNC(=O)c2ccc3c(c2)N(Cc2ccccc2)CCS3)c1	-5	2	-4%	?	-11	-0.5
O=C(c1cnn2c(C(F)(F)F)cc(-c3cccs3)nc12)N1CCN(C(c2ccccc2)c2ccccc2)CC1	-4	-13	-7%	8%	-3	-3.6
COc1cc(NC(=O)C2CCN(S(=O)(=O)c3cccs3)CC2)cc(OC)c1	-7	-23	-12%	-4%	-7	-5.3
O=C(Nc1ccc(N2CCCCC2)cc1)C(Cl)c1ccccc1 (configuration not stated)	?	-1	1%	?	-19	3.9
CC(=O)N1c2ccc(S(=O)(=O)N3CCCC3C(=O)NCc3ccccc3Cl)cc2CC1C (configuration not stated)	-1	-3	-6%	-68%[inhibitor]	-1	-1.0
O=C(CSC(=S)N1CCCCC1)Nc1ncc2c(n1)CC(c1ccco1)CC2=O (configuration not stated)	0	-2	-21%	-3%	-6	-4.9
COc1ccc(CSc2nc3ccccc3c(=O)n2CCCN2CCOCC2)cc1F	0	-24	-8%	-2%[15.4 µM]	-29	-4.0
Cc1c(C)c2ccc(OCC(=O)NCCN3CCOCC3)cc2oc1=O	/	-6	10%	-4%	-4	2.3
CC(C)(C)c1n[nH]c2c1CCCC2	2	-4	8%	0%[15.4 µM]	15	-2.4

(listing goes on)
SMILES	CtBP-E1A blk	D2 potentiator	gsp antag	gsp agonist	Six1-Eya2 inh	D2 agonist
O=C(CN(C1CCCCC1)S(=O)(=O)c1ccc(Cl)cc1)NCc1cccnc1	0	-5	5%	-5%	7	-2.2
CSc1ccc(Cl)c(C(=O)N(C)CC(=O)Nc2ccc(N3CCOCC3)cc2)c1	3	-4	5%	-11%	-3	-1.9
COCCN(C(=O)COC(=O)/C=C/c1nc2ccccc2s1)c1c(N)n(Cc2ccccc2)c(=O)[nH]c1=O	?	-1	-1%	-2%[15.4 µM]	-11	-2.5
CCc1c(C)sc(NC(=O)c2cc(-c3cc(OC)ccc3OC)on2)c1C#N	7	-12	13%	25%	2	-1.6
COc1cc(C2C(C#N)=C(N)Oc3cc(N)ccc32)cc(OC)c1OC (configuration not stated)	-1	4	15%[15.4 µM]	20%	-9	-2.7
COC(=O)[C@H](CCSC)NC(=O)Nc1ccc(S(N)(=O)=O)cc1	1	0	8%	15%	4	-1.1
CC(=O)c1ccc(NC(=O)/C(=C\c2ccc(F)cc2)NC(=O)c2ccco2)cc1	-4	-7	-4%	-12%[15.4 µM]	-3	2.2
O=C(Nc1cccc(S(=O)(=O)N2CCCC2)c1)c1cc(S(=O)(=O)N2CCOCC2)ccc1F	8	-26	-10%	4%[15.4 µM]	6	-0.3
COc1ccc(-c2csc(C(O)c3ccc(F)c(F)c3)n2)cn1 (configuration not stated)	4	-4	/	/	2	4.4
Cc1ccc(C(=O)NCCCNC(=O)COc2ccc(Cl)c(C)c2)cn1	-19	10	3%	-24%	2	1.9
CC(OC(=O)c1cc(S(=O)(=O)N2CCOCC2)ccc1F)C(=O)NCC1CCCCC1 (configuration not stated)	-1	-16	1%	-6%[15.4 µM]	7	-0.1
Oc1ccc(-c2nnc(SCC3CCCCC3)o2)cc1	-6	-6	1%	-32%[inhibitor]	-15	-0.9
CCCc1cc(CNC(=O)C2CCC(=O)N(Cc3ccccc3OC)C2)on1 (configuration not stated)	8	3	14%	-82%[inhibitor]	-1	4.7
N#CCCc1cccc(CCC#N)c1	1	-5	12%	-1%	8	-3.4
O=C(NN1CCOCC1)c1ccc(Cl)c([N+](=O)[O-])c1	13	-7	-16%	13%	2	1.8
CC(=O)NC(C)(c1ccccc1)c1nc(-c2cncnc2)cs1 (configuration not stated)	0	-11	/	/	-5	-6.7
Cc1sc2nc(CSCC(=O)Nc3ccc(C(F)(F)F)cc3)[nH]c(=O)c2c1C	0	0	-4%	-4%	-1	2.1
CC(C)c1ccccc1OCCCCCNCCO	7	-31	3%	-30%	3	-3.7
CN1OC[C@@H]2CN(C(=O)C(C)(C)C)[C@H](c3ccc(-n4ccnc4)cc3)C[C@@H]21	5	-6	/	/	7	-5.7
COC(=O)[C@H]1C[C@H](O)CN1S(=O)(=O)c1ccc(Br)cc1F	4	0	11%	/	5	-2.0
COC(=O)c1ccccc1NC(=O)CN1CCc2ccccc2C1	14	-10	-19%	3%[15.4 µM]	17	5.4
O=C(O)c1ccc(Cl)c(S(=O)(=O)N2CCC(Cc3ccccc3)CC2)c1	-1	4	-1%	-7%[15.4 µM]	-4	1.1
Cc1cc(NC(=O)Cn2nc3c(cc2=O)CCCC3)ccc1Br	1	-10	5%	-15%	1	-2.7
Cc1cc(C)c2c(=O)[nH]c(SCc3ccccc3)nc2n1	-19	-5	12%	12%[15.4 µM]	-7	-0.6
CC(=O)N1CCSc2ccc(S(=O)(=O)Nc3cccc(C)c3)cc21	-1	1	-14%	-19%	4	2.0

High-throughput results: PubChem, National Center for Advancing Translational Sciences (NCATS)
